Source: PubChem
Rango release inh: inhibition of RanGTP-driven Rango-importin beta dissociation. O95149+P62826. Biochemical FRET Rango-importin beta, RanGTP-induced dissociation. Potency, µM (highest dose often 46.1 µM), for the others: at the top dose activity change, negative = inhibition. actives 0.071% (n = 340,000); active means falling FRET ratio curve, often poorly fitted, with flat reads before Ran was added; inconclusive means other falling curves, or compound fluorescence or quenching; inactive means flat or rising ratio curve;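 note: potency is the fitted concentration of half-maximal effect; % of control where 0% means no effect; nearly all actives have a fitted effect of over 45% in size; -100% = wells without RanGTP and RCC1; the record marks most hits as doubtful in a second field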
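Rango/importin beta premix (0.1/0.25 uM final), PBS + 1 mM DTT + 0.02% Tween-20 + 0.1% BSA; cpd 5 min RT; FRET pre-read; + RanGTP-RCC1 (0.6 uM Ran, 2 mM GTP, 0.2 uM RCC1); 45 min RT; FRET post-read, ex 430, em 486/530 nm.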
miR-21 FLuc: miR-21 reporter, rising signal; HeLa miR-21 FLuc reporter, luciferase, 48 h; Potency, µM (titrated, usually from 38.3 µM), without a hit: top-dose reporter change, positive = more light; 340,000 tested, under 10 active; AID 2288; active = well fitted rising curve with a large enough effect; inconclusive = small, poorly fitted or top-dose-only effect; inactive = no such curve, though single readings can be large or run the other way;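 note: % of control where 0% means no effect; miR-21 action dims this reporter so a rising signal means less miR-21 action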
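HeLa miR-21-FLuc reporter line, endogenous miR-21; 2000 cells/well in DMEM/10% FBS; compound titration up to ~40uM final, 48 h, 37 degree Celsius; luciferase detection reagent, 15 min lysis, CCD luminescence.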
GLA inh pH 4.5: alpha-galactosidase A (human) inhibition, pH 4.5; P06280; AID 1467; purified enzyme, 4-MU-alpha-Gal fluorescence, pH 4.5; activity change, negative = inhibition, % at 105 µM; 230,000 tested, under 10 active; inconclusive = small, poorly fitted or top-dose-only inhibition, or a rising curve; inactive = flat fitted curve, though single readings scatter; no compound was filed as active;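 note: 0% = full activity with enzyme and -100% = basal without enzyme; dose as in the result columns while the protocol names 77 µM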
Target sequence (P06280 whole entry, looked up): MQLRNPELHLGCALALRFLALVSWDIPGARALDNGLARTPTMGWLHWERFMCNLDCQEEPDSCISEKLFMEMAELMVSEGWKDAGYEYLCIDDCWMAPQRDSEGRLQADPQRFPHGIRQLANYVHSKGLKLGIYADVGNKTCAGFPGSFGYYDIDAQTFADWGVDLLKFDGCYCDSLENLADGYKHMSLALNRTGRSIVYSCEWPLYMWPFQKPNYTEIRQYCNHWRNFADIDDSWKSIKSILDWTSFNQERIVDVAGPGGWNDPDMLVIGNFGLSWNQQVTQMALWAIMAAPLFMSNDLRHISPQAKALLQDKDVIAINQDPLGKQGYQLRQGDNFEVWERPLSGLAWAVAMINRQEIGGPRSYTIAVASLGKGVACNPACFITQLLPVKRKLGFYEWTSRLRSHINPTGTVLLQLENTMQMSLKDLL
Rango complex inh: Rango-importin beta binding inhibition. Q14974. Potency, µM (top dose mostly 92.2 µM), without a hit: at the top dose inhibition of complex formation. AID 540263. Rango CFP/YFP FRET sensor + importin beta, 45 min. actives 0.031% (n = 340,000); active = rising FRET ratio curve, often small or poorly fitted; inconclusive = mostly compound fluorescence or quenching in the first reads; inactive = flat curves in all reads;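 note: potency is the fitted concentration of half-maximal effect; 0% = DMSO wells and 100% = buffer wells lacking importin beta; nearly all actives have a fitted effect of over 15% in size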
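FRET biosensor Rango (snurportin 1 IBB between N-terminal EYFP and C-terminal Cerulean), 50 nM in PBS/1 mM DTT/0.02% Tween-20/0.1% BSA, preincubated 5 min RT with compound; 0.125 microM importin beta added, 45 min RT, CFP/YFP FRET ratio read.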
* = called active by the depositor; ? = inconclusive; / = not tested or not shown; & = joins results of further samples. The list is partial, so the mix of outcomes need not match the whole.

molecule	Rango release inh	miR-21 FLuc	GLA inh pH 4.5	Rango complex inh
COc1ccc(NCc2nc3ccccc3n2CCOc2ccc(C)cc2)cc1	7%	15%&-7%	-16	0.0%
O=C(Cc1ccccc1)c1ccc(Cl)cc1	-7%	-19%	4	0.8%
COc1cc2c(cc1OC)C(CC#N)=NC(C)(C)C2	9%	-25%	-9	1.0%
Cc1onc(-c2c(F)cccc2Cl)c1C(=O)NC(C)c1ccccc1 (configuration not stated)	-9%	0%	/	5.1%
Cc1cccc(NC(=O)Nc2cnccn2)c1	0%	-26%	-11	-0.2%
CCOCCCn1c(=S)[nH]c2cc(C(=O)NCCOC)ccc2c1=O	0%	-1%	7	-2.7%
CCOc1ccc(N2C(=O)S/C(=C\c3cc(OC)c(OC)c(OC)c3)C2=O)cc1	0%	-1%	2	3.3%
COc1ccc(S(=O)(=O)Nc2cccc(-c3ccc(N4CCCCCC4)nn3)c2)c(OC)c1	17%	-37%&-38%	/	-3.0%
COc1ccc(C(=O)C2CCCN(C(=O)Cc3c(C)noc3C)C2)cc1OC (configuration not stated)	-10%	0%	-3	-2.1%
Cc1cc(C)n2nc(C(=O)Nc3ccc4c(c3)OCO4)cc2n1	3%	-29%	2	-0.3%
N#CC(c1ccccc1)c1ccc(=O)[nH]n1 (configuration not stated)	6%	-1%	10	6.9%
O=c1cc2c(n[nH]1)-c1ccccc1CC2	11%	-8%	/	-0.1%
COc1ccccc1NC(=S)NCc1ccccc1Cl	7%	16%	/	-0.1%
O=C(CC1C(=O)NCCN1Cc1cccc(Oc2ccccc2)c1)NCCn1cccn1 (configuration not stated)	-11%	0%	3	-2.2%
C[N+]1(CC2COC3(CCCCC3)O2)CCCC1 (configuration not stated)	7%	-5%	-10	-0.4%
O=C(Nc1ccccc1)c1cccc(C(=O)Nc2ccccc2)n1	2%	3%	/	5.3%
O=C(COC(=O)c1cccnc1Cl)Nc1ccc(N2CCCCC2)cc1	-14%	/	/	11%
COc1ccc(C(=O)c2ccc(OC)cc2OC)cc1	-16%	15%	-16	1.1%
CN1CCSc2ccc(C(=O)NCc3ccccc3)cc21	-7%	-24%&4%	/	-3.5%
CC(=O)Nc1ccc(-c2ccc(NC(C)=O)c(O)c2)cc1O	-1%	-42%	-1	-1.3%
O=C(Cc1ccccc1)NCC(=O)N/N=C/c1cccs1	3%	0%	/	-1.7%
COc1cc(C2(c3ccc(O)c(OC)c3)C(=O)Nc3c(Br)cc(Br)cc32)ccc1O	1%	/	/	1.0%
CC(C(=O)N1CCOCC1)N1C(=O)c2cccc3cccc(c23)C1=O (configuration not stated)	?	-5%	3	-2.5%
O=C(CCS(=O)(=O)c1ccccc1)Nc1ccccc1F	-9%	-27%	5	?
CCCOC(=O)Cn1cnc2scc(-c3ccc(C)cc3)c2c1=O	-10%	3%	/	4.7%
CC12C=CC3(O1)C(C(=O)N1CCCOC13)C2C(=O)O (configuration not stated)	-9%	0%	11	1.9%
Cc1ccc(C(=O)NN(CCC(=O)NC(C)(C)C)C2=NS(=O)(=O)c3ccccc32)cc1	5%	-3%	-5	2.6%
CCN(CC)S(=O)(=O)c1cc(NC(=O)COC(=O)c2ccc(NC(=O)CC#N)cc2)ccc1C	?	0%	4	?
CCS(=O)(=O)N1CCC(C(=O)NCc2ccc(F)cc2Cl)CC1	-9%	0%	-9	-0.2%
O=C(C1CC(c2ccccc2O)=NO1)N1CCCC1 (configuration not stated)	6%	-46%	1	0.0%
O=C(Cn1ccc2cc(S(=O)(=O)N3CCCC3)ccc21)NCc1ccco1	-21%	3%	/	?
Fc1ccccc1COc1ccc(-c2nnn(Cc3ccccc3F)n2)cc1	27%	-4%	-1	-4.1%
Cc1ccnc(NC(=O)c2ccccc2NC(=O)c2ccc(Cl)cc2Cl)c1	-11%	12%	/	1.1%
CC(C)c1ccc(NC(=S)NNC(=O)c2cccs2)cc1	19%	-50%	4	-0.1%
CCc1nnc(NC(=O)C2Cc3ccccc3CN2S(=O)(=O)CC)s1 (configuration not stated)	10%	-11%	-4	-0.4%
O=C(O)c1cccc(-c2ccc(/C=c3/sc4nc5ccccc5n4c3=O)o2)c1	?	-25%	-28	?
O=C(NCCN1CCc2ccccc2C1)Nc1ccc(F)cc1	10%	-7%	4	-0.3%
CCCS(=O)(=O)N1CCCC(c2nc(-c3ccc(OC)cc3)no2)C1 (configuration not stated)	10%	-5%	5	0.2%
CN(Cc1ccc2ccccc2c1)C(=O)c1ccc(C(F)(F)F)cc1	-1%	-7%	/	1.3%
COc1ccccc1NC(=O)Cn1nnc(-c2ccccc2NS(=O)(=O)c2ccccc2)n1	1%	14%	0	-1.3%
CC(=O)N=C1SC2CS(=O)(=O)CC2N1c1ccccc1Cl (configuration not stated)	-1%	-1%	7	0.3%
CCN(c1ccccc1)S(=O)(=O)c1ccc(Cl)c(NC(=O)Nc2ccc(Cl)cc2C#N)c1	-1%	-1%	-29	0.2%
CC(C)(C)NS(=O)(=O)c1ccc(NC(=O)CS(=O)(=O)Cc2ccccc2)cc1	9%	-2%	/	3.0%
COc1ccc(C2CC(=O)C3=C(C2)Nc2ncnn2C3c2ccccc2C)c(OC)c1 (configuration not stated)	-2%	-3%	14	-1.3%
NC1=NC(c2ccc(F)cc2)n2c(nc3ccccc32)N1 (configuration not stated)	15%	3%	8	6.3%
COc1cc(Br)c(CN2CCCN(C)CC2)cc1OC	3%	0%	/	0.4%
C[C@H](CO)N1C[C@H](C)[C@@H](CN(C)S(=O)(=O)c2cccs2)Oc2c(NC(=O)NC3CCCCC3)cccc2C1=O	1%	/	/	4.8%
COc1ccc2c(c1)c(CC(=O)Nc1cccc(S(N)(=O)=O)c1)c(C)n2C(=O)c1ccc(Cl)cc1	17%	10%	3	-1.0%
COc1cc(S(=O)(=O)Nc2cccc(C(=O)O)c2)c(OC)cc1Cl	-2%	1%	-3	-1.7%
Cn1cnc2cc(NCc3cccs3)ccc21	1%	-44%	-2	0.5%
CCCc1ccc(-c2cc(C(=O)N/N=C/c3ccc([N+](=O)[O-])o3)c3ccccc3n2)cc1	1%	22%	-6	3.1%
COc1ccccc1NC(=O)/C(=C\c1cccnc1)NC(=O)c1ccc(C)cc1	-13%	6%	/	0.1%
O=C(Cn1c(=O)oc2cc(S(=O)(=O)N3CCCC3)ccc21)NC1CCCc2ccccc21 (configuration not stated)	-1%	6%	2	-0.6%
Nn1c(C2CCC2)nc2ccccc2c1=O	-5%	-1%	/	-2.2%
Cc1ccc(-c2csc3ncnc(SCC(=O)O)c23)cc1	-12%	2%	-6	0.0%
COc1ccccc1N1CCN(C2CC(=O)N(c3ccccc3)C2=O)CC1 (configuration not stated)	-13%	-7%	/	5.1%
CCn1c(=O)n(CC)c2cc(NC(=O)c3ccccc3Cl)ccc21	-4%	-11%	/	-0.8%
O=C1ON=C(c2ccccc2)/C1=C/c1ccco1	-3%	3%	4	0.9%
Cc1ccc(C#N)c(SCCN2CCCCC2)n1	-7%	-1%	/	-0.3%
Cc1cc(C)nc(SCC(=O)Nc2ccc(Br)cn2)n1	7%	-15%	1	-3.7%

4 compounds drawn at random from those above, as already listed:
molecule	Rango release inh	miR-21 FLuc	GLA inh pH 4.5	Rango complex inh
O=C(Cc1ccccc1)c1ccc(Cl)cc1	-7%	-19%	4	0.8%
COc1ccccc1NC(=S)NCc1ccccc1Cl	7%	16%	/	-0.1%
C[C@H](CO)N1C[C@H](C)[C@@H](CN(C)S(=O)(=O)c2cccs2)Oc2c(NC(=O)NC3CCCCC3)cccc2C1=O	1%	/	/	4.8%
N#CC(c1ccccc1)c1ccc(=O)[nH]n1 (configuration not stated)	6%	-1%	10	6.9%

(further entries)
molecule	Rango release inh	miR-21 FLuc	GLA inh pH 4.5	Rango complex inh
CCC(C)NC(=O)c1ccccc1NC(=O)/C(=C/c1ccc(OC)cc1)c1ccccc1 (configuration not stated)	-4%	0%	-9	-2.3%
Cc1nc2nc(SCC(=O)NCCN3CCOCC3)nn2c(C)c1Cc1ccccc1	10%	-3%	5	-1.6%
CCn1c(SCC(=O)NC2CC2)nnc1-c1ccc(F)cc1	1%	1%	/	0.1%
Cc1ccnc(NC(c2ccsc2)c2ccc3ccc(C)nc3c2O)c1 (configuration not stated)	17%	3%	0	-0.8%
COc1ccc(OC)c(NC(=O)C2CCCN(S(=O)(=O)c3cccc4nonc34)C2)c1 (configuration not stated)	-7%	-3%	5	3.7%
CSc1cccc(CN2CCC(CO)(Cc3ccccc3)CC2)c1	0%	-14%	2	-0.4%
O=C(Nc1ccc([N+](=O)[O-])cc1)NN1CCCCCC1	18%	/	/	3.6%
O=C(O)CCCCCCCCCC(=O)c1cccs1	-13%	4%	-1	-0.7%
Cc1cc(Oc2ccc(-c3ccccc3)cc2)nc(N2CCOCC2)n1	21%	-1%	-2	-2.4%
CCN(CC)c1ccc(NC(=O)c2ccc(Cl)nc2)cc1	0%	2%	5	-1.2%
Cc1cc2nc(C3CCN(CC4COc5ccccc5O4)CC3)[nH]c2cc1C (configuration not stated)	-20%	18%	-4	-5.8%
NS(=O)(=O)c1ccc(NC(=O)c2cccc3cc4ccccc4nc23)cc1	29%	/	/	-2.4%
CSCCC(NC(=O)c1cccc(C)c1)C(=O)Nc1sccc1C(N)=O (configuration not stated)	-8%	3%	/	-3.3%
CCOC(=O)Cn1nc(C)n(-c2ccc(F)cc2)c1=O	-6%	4%	-11	-0.9%
CC(C)[C@@H](CO)N(C)S(=O)(=O)c1ccccc1Br	-2%	/	/	0.4%
CC(=NNc1ccc([N+](=O)[O-])cn1)c1ccccc1	?	/	/	?
Cc1ccc(OCC(=O)N2CCN(S(=O)(=O)c3ccc4c(c3)OCCO4)CC2)c(C)c1	-2%	/	/	-0.1%
COc1ccc(CNC(=O)CN(c2ccc(C)cc2)S(=O)(=O)c2c(C)nn(C)c2C)cc1	10%	-1%	/	2.2%
COCCNC(=O)c1cc(S(=O)(=O)N2CCOCC2)ccc1SCc1cccc(OC)c1OC	-14%	-1%	-4	-4.1%
CCN1CCC2(CC1)N=C(c1ccc(F)cc1)C(=S)N2	9%	-11%	3	-0.3%
CCOc1nc(-c2ccc(OC)cc2)ccc1-c1noc(-c2ccncc2)n1	-9%	-1%	-7	0.0%
O=C(CSCc1ccccc1Cl)N1CCN(c2ccccn2)CC1	-10%	-50%	-9	1.4%
CCOC(=O)C(C)Oc1cccc2c(=O)n(CC(=O)Nc3ccc4c(c3)OCCO4)ccc12 (configuration not stated)	5%	10%	2	0.8%
CCOC(=O)CC1(c2ccccc2)CCOC(C)(C)C1 (configuration not stated)	1%	-38%	8	-1.9%
O=C(NCc1ncc(C(F)(F)F)cc1Cl)Nc1ccccc1	-8%	-27%	/	-0.2%
COc1ccc(C(CNC(=O)Cc2ccccc2)N2CCCCC2)cc1 (configuration not stated)	-3%	-4%	/	-2.1%
CN(c1cnn(-c2ccccc2)c(=O)c1Cl)n1cccc1	39%	-53%	8	-0.6%

Part of the list above, showing only miR-21 FLuc, GLA inh pH 4.5 and Rango release inh.
canonical_smiles,miR-21 FLuc,GLA inh pH 4.5,Rango release inh
CCOC(=O)C(C)Oc1cccc2c(=O)n(CC(=O)Nc3ccc4c(c3)OCCO4)ccc12 (configuration not stated),10%,2,5%
COCCNC(=O)c1cc(S(=O)(=O)N2CCOCC2)ccc1SCc1cccc(OC)c1OC,-1%,-4,-14%
Cc1ccc(OCC(=O)N2CCN(S(=O)(=O)c3ccc4c(c3)OCCO4)CC2)c(C)c1,/,/,-2%
CCOC(=O)CC1(c2ccccc2)CCOC(C)(C)C1 (configuration not stated),-38%,8,1%
CCOc1nc(-c2ccc(OC)cc2)ccc1-c1noc(-c2ccncc2)n1,-1%,-7,-9%
O=C(NCc1ncc(C(F)(F)F)cc1Cl)Nc1ccccc1,-27%,/,-8%
